Sa growth 42C: inhibitors of Staphylococcus aureus growth at 42 °C. S. aureus RN4220 growth, OD600, 20 h; hits give low values. 0.53% of 170,000 active. relative growth, % (test concentration not listed);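 active means growth at 42 °C up to 50% and 20 or more points under that at 30 °C, or under 10% at both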;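 further: 300 nL library stock went into each well; scaled to the means of positive and negative controls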
HCMV NEC inh: inhibitors of HCMV UL50-UL53 nuclear egress complex interaction. HTRF UL50-UL53 interaction, normalized percent inhibition. inhibition, % (concentration not given with the values). 0.15% of 190,000 active. AID 1918969;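 active means both replicates at 50% or more, plus weaker picks with an unusually low signal ratio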;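 further: stock transfer was 100 nL into about 20 µL; 0% = negative control wells and 100% = wells with untagged competitor protein; inactives centre near -12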
GIV-Gai inh: GIV-Galpha-i interaction inhibition. P08753. Galpha-i3/FITC-GIV peptide fluorescence polarization, 90 min; hits give low values; scaled: aluminum fluoride 0%, vehicle 100%. percent of control (FP), % (no concentration beside the values). 0.42% of 210,000 active;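 active means replicate mean at 85% of control or lower, very high polarization wells dropped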;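 further: wells of about 15 µL received 100 nL stock; the first replicate is given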
Target sequence (P08753 whole entry, looked up): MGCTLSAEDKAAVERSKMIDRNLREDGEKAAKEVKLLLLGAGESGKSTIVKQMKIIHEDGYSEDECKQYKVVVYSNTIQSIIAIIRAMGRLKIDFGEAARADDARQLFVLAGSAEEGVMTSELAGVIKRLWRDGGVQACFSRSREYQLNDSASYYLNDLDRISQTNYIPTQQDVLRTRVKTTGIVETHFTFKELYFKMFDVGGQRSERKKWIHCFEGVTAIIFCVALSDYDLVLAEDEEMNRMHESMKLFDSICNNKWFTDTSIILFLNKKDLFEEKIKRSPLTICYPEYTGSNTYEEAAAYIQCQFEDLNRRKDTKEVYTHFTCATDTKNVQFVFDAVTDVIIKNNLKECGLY
Sa growth 42C second temp: further read-out of Sa growth 42C, marked with its call; relative growth, %; measured here: growth at 30 °C;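 optical density after 20 h as mean of two plates; 100% = untreated growth and lower means inhibition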
The depositor's hits bear a star; . = no result given; & = joins results of further samples.

Value order: Sa growth 42C	Sa growth 42C second temp	HCMV NEC inh	GIV-Gai inh
[1] O=C(CC(NCc1ccccc1)C(=O)O)c1ccc(Br)cc1 (stereo unspecified)
→ 90	99	0	.
[2] OC(CNc1ccccn1)COc1ccc(OCC(O)CNc2ccccn2)cc1 (stereo unspecified)
→ 98	79	-26	104
[3] O=C(COc1ccc(-n2cnnn2)cc1)NC12CC3CC(CC(C3)C1)C2
→ 75	94	2	.
[4] COc1ccc(C(=O)c2cn(Cc3cccc(C)c3)c3cc4c(cc3c2=O)OCO4)cc1
→ 111	87	-41	98
[5] C1=C(CCNc2nc3ccccc3n3nnnc23)CCCC1
→ 88	85	.	110
[6] CC(=O)c1ccc2c(c1)C1C=CCC1C(c1cccc3ccccc13)N2 (stereo unspecified)
→ .	.	-20	102
[7] COc1cc(OC)c(/C=N/O)cc1Br
→ 94	87	-4	.
[8] COc1ccc(-c2nc(CSc3nncn4c3cc3occc34)c(C)o2)cc1
→ 77	86	.	119
[9] CS(=O)(=O)N1CCCc2cc(C(=O)N3CCN(c4ccccc4F)CC3)ccc21
→ .	.	-16	100
[10] CC(C)Cc1cc(-c2nn3c(Cc4ccc(Cl)cc4)nnc3s2)n[nH]1
→ .	.	-21	108
[11] CC1(C(=O)NCc2ccccc2)CCC(=O)N1CCC1=CCCCC1 (stereo unspecified)
→ 87	87	-33	108
[12] CCCCOc1ccc(Cn2c(=O)oc3ccc(C)cc32)cc1OC
→ 100	86	-27	101
[13] CC(C)C(NC(=O)c1ccccc1F)C(=O)O (stereo unspecified)
→ 129	92	-8	.
[14] Cc1ccc(NC(=O)COC(=O)C2CC2C)c(S(=O)(=O)N2CCCCC2)c1 (stereo unspecified)
→ 109	89	-15	.
[15] CC1(C)CC2CC(C)(CN2/C=C/C#N)C1 (stereo unspecified)
→ 65	82	-29	.
[16] Cc1ccc(-c2nc(CSc3nc(C)c(CCO)c(=O)[nH]3)c(C)o2)cc1
→ .	.	-23	103
[17] Clc1ccc(OCc2nn3c(-c4ccccn4)nnc3s2)cc1
→ .	.	-7	107
[18] CCOC(=O)c1cc(C)n(Cc2ccccc2)c1C
→ 83	89	4	101
[19] CC(C)n1cnc2nc(CSc3ccc(NC(=O)c4ccccc4Cl)cc3)cc(=O)n21
→ .	.	-14	100
[20] CCCN1Cc2cccc(C(=O)Nc3ccccc3F)c2C1=O
→ 97	83	-30	101
[21] Cc1ccc(C(C)C)c(OCCN)c1
→ 82	88	-9	.
[22] Cc1cc(C(=O)O)ccc1-n1c(C)cc(C=Nc2ccc(N3CCOCC3)cc2)c1C
→ 101	73	-10	.
[23] Cc1nc(C)c(C(=O)Nc2nc(-c3ccccc3)cs2)s1
→ .	.	4	109
[24] Cc1ccc(CNC(=O)c2cccc(Cn3cc(Cl)cn3)c2)cc1
→ 90	91	-3	99
[25] N#CC(C(=O)N1CCCC1)C(=S)Nc1ccccc1Cl (stereo unspecified)
→ 120	87	-6	102
[26] CCOC(=O)c1ccc(NC(=O)NC(c2ccccc2)c2nnc(-c3ccccc3)o2)cc1 (stereo unspecified)
→ .	.	-16	101
[27] O=C(O)CSc1ccccc1Cl
→ 103	106	18	.
[28] COc1ccc2c(c1)sc1ncc(C(=O)NCC(C)c3ccccc3)c(=O)n12 (stereo unspecified)
→ 93	95	.	107
[29] O=C(CCn1cccc1)N1CCc2ccccc21
→ 131	99	.	101
[30] Cc1ccc(C)n1-c1ccc(-c2nc3ccccc3[nH]2)cc1
→ 93	75	-12	.
[31] O=C(Cn1c(=O)c(C(F)(F)F)nc2ccccc21)NCc1ccccc1Cl
→ .	.	-10	102
[32] CCOc1ccccc1NC(=O)C1CCCN(c2ncnc3onc(-c4ccc(F)cc4)c23)C1 (stereo unspecified)
→ 84	89	-2	106&97
[33] Cc1ccc(N2CC(c3nnc(Cc4ccccc4Cl)o3)CC2=O)cc1 (stereo unspecified)
→ 98	40	20	109
[34] CCn1c2ccccc2n2cc(-c3ccc(F)cc3)nc12
→ .	.	-14	103
[35] O=C1c2ccccc2CN1c1ccccc1
→ 113	94	-28	106
[36] O=C(O)c1cc(-c2cccs2)nn1-c1cccc(Cl)c1
→ 100	83	-30	.
[37] COc1ccccc1NCc1cc(=O)n2[nH]c(NCc3ccccc3)nc2n1
→ .	.	-39	100
[38] CCc1nn2c(=O)cc(N3CCN(c4cc(C)nc5ccccc45)CC3)nc2s1
→ 85	93	4	105
[39] Cc1cc(C)n2cc(CN3CCc4ccccc4C3)nc2n1
→ 93	95	-14	.
[40] Cc1nn(-c2ccccc2)c2c1-c1sc(C(=O)N3CCN(c4ncccn4)CC3)cc1CC2
→ .	.	-25	105

Single records (already shown).
CCn1c2ccccc2n2cc(-c3ccc(F)cc3)nc12 is listed with Sa growth 42C = .; Sa growth 42C second temp = .; HCMV NEC inh = -14; GIV-Gai inh = 103
COc1ccccc1NCc1cc(=O)n2[nH]c(NCc3ccccc3)nc2n1 is listed with Sa growth 42C = .; Sa growth 42C second temp = .; HCMV NEC inh = -39; GIV-Gai inh = 100
Cc1cc(C)n2cc(CN3CCc4ccccc4C3)nc2n1 is listed with Sa growth 42C = 93; Sa growth 42C second temp = 95; HCMV NEC inh = -14; GIV-Gai inh = .

(further entries)
Value order: Sa growth 42C	Sa growth 42C second temp	HCMV NEC inh	GIV-Gai inh
[41] O=C1c2oc3ccccc3c(=O)c2C(c2ccc(O)cc2)N1Cc1ccc2c(c1)OCO2 (stereo unspecified)
→ 117	93	.	100
[42] CC(=O)Nc1ccc(NC(=O)c2ccc(COc3ccc(Cl)cc3Cl)o2)cc1
→ 102	94	-24	106
[43] CCOC(=O)N1CCN(C(=O)c2ccc3c(c2)N(Cc2cc(C)ccc2C)C(=O)c2ccccc2S3=O)CC1 (stereo unspecified)
→ 102	78	-22	101
[44] Cc1cc(C)c2c(c1)-c1cc(C)nn1C(c1cccs1)N2 (stereo unspecified)
→ 77	56	-17	103
[45] C=CCn1c(SC(C)C#N)nc2cc(Cl)ccc2c1=O (stereo unspecified)
→ 91	100	8	.
[46] COc1ccccc1NC(=O)C1CCN(c2cnccn2)CC1
→ 102	87	-24	98
[47] O=C(O)C1=Cc2ccccc2OC1
→ 100	95	-25	.
[48] Nc1sc2c(c1C(=O)Nc1cccc(Cl)c1)CCCCC2
→ 81	62	-12	.
[49] Cc1nc(C)c(C(=O)N/N=C/c2ccc(N(C)C)cc2)s1
→ 111	102	-9	.
[50] CCOC(=O)c1cc(-c2ccc(OC)cc2)nn1CCC#N
→ 101	92	-13	.
[51] COc1ccc(OCCCC(=O)Nc2ccc(S(=O)(=O)Nc3nccs3)cc2)cc1
→ 79	61	.	99
[52] OC(COCC1CC=CCC1)CN(Cc1ccccc1)Cc1ccccc1 (stereo unspecified)
→ 93	76	-10	.
[53] CCOC(=O)c1cc(NC(=O)c2ccc(C)cc2)c(=O)n2c1oc1ccc(Cl)cc12
→ 100	94	-23	108
[54] COC(=O)c1ccc(N=C2SC(C(=O)Nc3cccc(Cl)c3)CC(=O)N2C)cc1 (stereo unspecified)
→ .	.	-18	101
[55] CCOC(=O)c1cc(-c2ccc(C)cc2)n(CC(=O)NCc2ccccn2)c1C
→ 95	100	-2	108
[56] COc1ccc(C(=O)c2oc3ccccc3c2NC(=O)c2ccc(Cl)cc2)cc1OC
→ .	.	-11	102
[57] O=C(Nc1cccc(C(=O)N2CCN(c3ccc(F)cc3)CC2)c1)c1nsc2ccccc12
→ 123	93	.	108
[58] O=C(Nc1ccc2c(c1)C(=O)N(C1CCCCC1)C2=O)c1ccc(Br)o1
→ 110	95	-4	106
[59] O=C1c2ccccc2N(S(=O)(=O)c2cccs2)C(=O)c2ccccc2N1S(=O)(=O)c1cccs1
→ 105	94	-8	.
[60] Cc1cc(C(=O)NCc2ccc3c(c2)OCO3)c(C)o1
→ 119	86	-12	113

New compounds follow:
entry	SMILES	Sa growth 42C	Sa growth 42C second temp	HCMV NEC inh	GIV-Gai inh
61	COCC(=O)Nc1cccc(-c2ccc(S(C)(=O)=O)nn2)c1	96	86	-37	102
62	O=S(=O)(c1ccc(Sc2nnnn2C2CC2)nc1)N1CCCCC1	104	96	8	.
63	C#CC(CC)(CC)NC(=O)Nc1ccccc1	99	96	10	110
64	O=C1CC(Sc2nnc(-c3cccc(S(=O)(=O)N4CCOCC4)c3)o2)C(=O)N1c1ccc(F)cc1 (stereo unspecified)	54	84	-10	.
65	c1ccc(Oc2cccc(CSc3nc4ccccc4o3)c2)cc1	125	102	0	.
66	COc1ccc(CNC(=O)C(CC(C)C)NS(=O)(=O)c2ccc3c(c2)CCN3C(C)=O)cc1 (stereo unspecified)	109	92	-28	106
67	O=C(CS(=O)(=O)c1ccccc1Cl)N1CCOCC1	.	.	-12	104
68	CCOc1ccc(-c2cc(C(=O)N3CCN(c4cc(Cl)ccc4C)CC3)c3ccccc3n2)cc1	105	88	.	96
69	CCC(C)NC(=O)CSc1nc2ccccc2c(=O)n1CC1COc2ccccc2O1 (stereo unspecified)	119	98	2	103
70	Cc1ccc(C(=O)Nc2c(C)nc(Nc3ccccc3)nc2Nc2ccccc2)cc1	.	.	-2	101
71	O=C(Cc1cn2ccsc2n1)N/N=C1\CC(c2ccccc2)Oc2ccccc21 (stereo unspecified)	106	94	-6	.
72	O=C1c2ccccc2S(=O)(=O)c2cc(-c3nn[nH]n3)ccc21	77	82	-209	97
73	O=C(NCCc1c[nH]c2ccccc12)C1CCCCC1	100	110	0	.
74	Cc1cc2nc(CSCc3ccco3)cc(=O)n2o1	103	93	0	101
75	O=C(NC=Nc1cccnc1)c1cccc(COCC(F)(F)F)c1	132	99	.	101

Some of these compounds in order of their number in GIV-Gai inh, rising.
item | Compound | GIV-Gai inh
68 | CCOc1ccc(-c2cc(C(=O)N3CCN(c4cc(Cl)ccc4C)CC3)c3ccccc3n2)cc1 | 96
75 | O=C(NC=Nc1cccnc1)c1cccc(COCC(F)(F)F)c1 | 101
63 | C#CC(CC)(CC)NC(=O)Nc1ccccc1 | 110

Additional results follow.
entry	SMILES	Sa growth 42C	Sa growth 42C second temp	HCMV NEC inh	GIV-Gai inh
76	Cc1cc(NC(=O)c2noc3c2CCc2ccccc2-3)n(-c2ccccc2)n1	94	92	-13	102
77	CC1CC(C)(C)NC(=S)N1CCC(=O)NCCN1CCCc2ccccc21 (stereo unspecified)	91	91	-10	101
78	COc1ccc(CC(=O)Nc2cccc(-c3nc4cccnc4s3)c2)cc1OC	.	.	-7	107
79	O=C(NC1CCC(O)CC1)c1ccc(S(=O)(=O)N2CCCc3ccccc32)cc1 (stereo unspecified)	105	95	1	.
80	CCOCc1cc(CN2CCN(c3cccc(Cl)c3)CC2)c(O)c2ncccc12	20	5	-4	98
81	CC(=O)c1ccc(NC(=O)COc2ccccc2-c2nc(C)no2)cc1	96	93	-10	108
82	Cc1c(CC(=O)N2CCCC2)c(=O)oc2cc3occ(C(C)(C)C)c3cc12	94	82	-12	102
83	O=C(Nc1ccc2c(c1)OCO2)C1CCN(c2cc(-c3ccc(F)cc3)ncn2)CC1	.	.	-14	105
84	CCC1Cn2c(C(=O)NCCCN3CCCC3)cc3c(Cl)ccc(c32)O1 (stereo unspecified)	.	.	-12	107
85	Cc1nc(SCC(=O)Nc2nccs2)[nH]c(=O)c1C	91	88	-36	100
86	Cc1ccc2cc(CN(Cc3cccs3)Cc3nnnn3C(C)(C)C)c3nnnn3c2c1	108	78	-1	104
87	COc1ccccc1CC(=O)NC(C)C1CCCO1 (stereo unspecified)	108	96	-18	107
88	CCCCCCn1c(CN(C)C(C)=O)nc2ccccc21	.	.	-1	99
89	COc1ccc(Cl)cc1NC(=O)c1sc2nc(-c3ccc(OC)c(OC)c3)ccc2c1N	106	97	11	103
90	Cc1cc(=O)n2[nH]c(C34CC5CC(CC(C5)C3)C4)nc2n1	115	86	-14	103
91	CCCCC(=O)Nc1cc(-c2nc3ccccc3[nH]2)ccc1C	.	.	-16	100
92	COc1ccc(-n2c(SCC(N)=O)nc3c(oc4ccccc43)c2=O)cc1	94	86	-32	102
93	CCCCNC(=O)Cn1c(C)nc2onc(CC)c2c1=O	.	.	-4	104
94	COCCNc1nc(Nc2ccccc2)c2cnn(C)c2n1	.	.	-7	112
95	Cc1nnc(N2CCC(C(=O)NC3CCC(C)CC3)CC2)c2nn(-c3ccc(Cl)cc3)c(C)c12 (stereo unspecified)	89	79	.	102
96	CN(C(=O)Cn1ncc2c1-c1ccccc1OC2)c1ccc(F)cc1	.	.	-32	97
97	Cc1cccc(C(=O)N2CCc3cc(CNC(=O)CSc4ccccc4)ccc32)c1	75	72	.	102
98	O=S(=O)(Nc1ccccn1)c1ccc(Cl)cc1	118	82	-30	.
99	CC(C)(C)c1ccc(C(=O)NCC(=O)OCc2cc(=O)n3nc(C4CC4)sc3n2)cc1	83	86	0	106&110
100	O=C(Nc1nnc(C2CC2)s1)c1ccc2c(c1)S(=O)(=O)c1ccccc1C2=O	88	54	-95	.
101	O=c1c2ccccc2nc2sc(Nc3c(F)cccc3F)nn12	95	85	34	102
102	O=S(=O)(NCCc1csc2nc(-c3ccccc3)nn12)c1cccs1	119	88	.	100
103	CCc1ccccc1NC(=O)CN(C)S(=O)(=O)c1cccc2nsnc12	107	93	-113	106
104	COc1ccc(-c2nc3cc(NC(=O)c4cc5ccccc5o4)ccc3o2)cc1	93	85	-40	107
105	CCn1c(=O)c(=O)n(CC)c2cc(N3CCCCC3)c(NC(=O)c3cccc(OC)c3)cc21	107	92	-3	102
106	Cn1c(=O)c2c(nc(CN3CCOCC3)n2CC(=O)C(C)(C)C)n(C)c1=O	107	97	1	104
107	Cc1nn(C)c(C)c1S(=O)(=O)N1CCN(c2ccccc2)CC1	85	83	.	100
108	CCN1Cc2cccc(C(=O)Nc3ccc(F)cc3)c2C1=O	77	87	7	107

Screening results (PubChem BioAssay)
